Mtb growth = Mycobacterium tuberculosis H37Rv growth inhibition, cell based, confirmatory dose response (AID 1949); M. tuberculosis H37Rv growth inhibition; most inactive calls were filed without a number and no value below 0 was filed; inhibition, % at 10 µg/mL, or IC50 in µg/mL where a hit was titrated; 100,000 tested, 1.6% active;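 active = confirmed in a dose series; inconclusive = about 50% or more but not retested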;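 note: bacteria grown 7 days with compound before Alamar blue readout; 0% = untreated bacteria and 100% = reference antibiotic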
An asterisk follows results filed as active; i = inactive; ? = inconclusive.

SMILES	Mtb growth
Cc1ccc(C)c(S(=O)(=O)NCc2ccc(C(=O)O)cc2)c1	i
COc1cc(C2(c3ccc(O)c(OC)c3)C(=O)N(C)c3ccc(C)cc32)ccc1O	i
CCCOc1ccc(C2C(C(=O)c3ccc(C)o3)=C(O)C(=O)N2Cc2ccco2)cc1OCC (stereo unspecified)	i
Cc1ccc(CNC(=O)COc2ccc(Br)c(C)c2)cc1	10%
O=C(CSc1ccccc1)Nc1ccc(CSc2ccccc2)cc1	i
COc1ccccc1NC(=O)c1ccc(NC(=O)C2(c3ccccc3)CCOCC2)cc1	i
Cc1ccc(-c2nnc(Nc3ccccc3)c3ccccc23)cc1S(=O)(=O)NCc1cccnc1	4%
COc1cc(Br)ccc1NS(=O)(=O)c1ccc(Cl)cc1	5%
Cc1cc(NC(=O)C(=O)NCc2ccco2)no1	i
O=C(CSc1nnc(NC(=O)c2ccccc2Cl)s1)Nc1ccc2c(c1)oc1ccccc12	i
CN(c1ccccc1C(=O)N1CCCC1)S(C)(=O)=O	i
CC1CCN(C(=O)c2ccc(NC(=O)C(C)C)cc2)CC1	5%
CCOc1cccc(C(=O)Nc2ccc(N3CCN(C(=O)C(C)C)CC3)c(Cl)c2)c1	45%
O=C(O)CCC1=C2c3ccccc3CCN2C(=O)CC1	i
Cc1ccc(-c2nc3ccccc3n2C)cc1	3%
CCC(C)c1ccccc1NC(=O)c1ccccc1F (stereo unspecified)	10%
O=C1CCC(=O)N1c1ccc(-c2nc3ccc(N4C(=O)CCC4=O)cc3[nH]2)cc1	i
CCOC(=O)c1cc(Cc2ccccc2)sc1NC(=S)Nn1cnnc1	i
COc1ccccc1NC(=O)c1sc2ncn(CC(=O)NC3CCCCC3)c(=O)c2c1C	i
CCCCOc1ccccc1C1C(C(=O)OC)=CN(CC)C=C1C(=O)OC	i
COc1cc(NC(=S)NCc2ccc3c(c2)OCO3)cc(OC)c1	i
O=c1[nH]c(SCc2ccc(Cl)cc2)nc2c1CCC2	i
CC1CC(C)(C)Nc2ccc(OC(=O)CN3C(=O)c4ccccc4C3=O)cc21 (stereo unspecified)	i
Cc1nnc(SCC(=O)Nc2ccc(F)c(Cl)c2)n1-c1ccc(Cl)cc1	i
O=C(CN1C(=O)C2CC=C(Cl)CC2C1=O)Nc1ccc(Cl)c(Cl)c1 (stereo unspecified)	i
SMILES	Mtb growth
O=C(NC1CCCCC1)c1ccc(NS(=O)(=O)c2cccc3cccnc23)cc1	i
CCc1ccc(N2CC(C(=O)Nc3ccc(C(=O)OC(C)C)cc3)CC2=O)cc1 (stereo unspecified)	i
Cc1ccc(C)c(OCC(=O)Nc2ccc(S(=O)(=O)N3CCCCCC3)cc2)c1	i
COc1ccc(NC(=S)NCCc2ccc(Cl)cc2)c(OC)c1	i
CCNC(=S)NS(=O)(=O)c1ccc(Cl)cc1	i
Cc1ccc(SCc2[nH]nc3c2C(c2ccccc2Cl)C(C#N)=C(N)O3)cc1 (stereo unspecified)	2%
CC(=O)Nc1ccc(S(=O)(=O)N2CCN(c3ccccc3[N+](=O)[O-])CC2)cc1	4%
O=C(Nc1nccs1)c1cn(-c2ccccc2)nc1-c1ccc([N+](=O)[O-])cc1	i
C#CCOc1ccc(C2C3=C(CC(C)(C)CC3=O)N(CC(=O)O)C3=C2C(=O)CC(C)(C)C3)cc1	i
CCCc1cc(=O)[nH]c(/N=C(\NC(=O)c2ccccc2)Nc2ccc(F)cc2)n1	i
CN1CCN(C(=O)Cn2cnc3c2c(=O)n(C)c(=O)n3C)CC1	i
CCn1c(CNC(=O)c2cccc(C)c2)nnc1SCC(=O)Nc1nc(-c2ccccc2)cs1	i
COC(=O)N1CCN(CCc2ccccc2)CC1	i
COc1ccc(OCc2nc(-c3ccncc3)no2)cc1	13%
C=CCn1c(SCc2ccc(Cl)cc2)nc2sc3c(c2c1=O)CCC3	i
Cc1cc(C)c(S(=O)(=O)n2c(C)nc3ccccc32)cc1C	i
COc1ccc(CNC(=O)c2ccc(Cn3cc(Cl)cn3)o2)cc1	4%
COc1ccc(-c2cc(-c3ccccc3)nc(SCCC#N)c2C#N)cc1	i
CCCN(CC1CC1)C1CC(=O)N(c2ccc(OCC)cc2)C1=O (stereo unspecified)	i
O=[N+]([O-])c1ccc(Sc2nnc(-c3ccc(Cl)cc3)n2-c2ccccc2)nc1	i
COc1ccc(NC(=O)CN(C)S(=O)(=O)c2ccc(Br)cc2)cc1OC	1%
COc1cccc(Nc2nc(-c3cc4cc(Br)ccc4oc3=O)cs2)c1	?
O=C1NN=C(c2ccc(Cl)cc2)CC1c1c[nH]c2ccccc12 (stereo unspecified)	7%
COC(=O)C1=CN(C)C=C(C(=O)OC)C1c1ccc(OC)cc1	i
C=C/C(=C\C=C(/C)OC)n1c(SCC(=O)Nc2cc(C(F)(F)F)ccc2Cl)nc2ccccc2c1=O	i

Rewritten field by field: entries from further up
Structure: CCn1c(CNC(=O)c2cccc(C)c2)nnc1SCC(=O)Nc1nc(-c2ccccc2)cs1
  Mtb growth: i

Structure: COC(=O)N1CCN(CCc2ccccc2)CC1
  Mtb growth: i

Structure: COc1ccc(OCc2nc(-c3ccncc3)no2)cc1
  Mtb growth: 13%

Reprinted at random: 3 entries already listed.
SMILES	Mtb growth
CCCc1cc(=O)[nH]c(/N=C(\NC(=O)c2ccccc2)Nc2ccc(F)cc2)n1	i
COc1ccc(-c2cc(-c3ccccc3)nc(SCCC#N)c2C#N)cc1	i
CCn1c(CNC(=O)c2cccc(C)c2)nnc1SCC(=O)Nc1nc(-c2ccccc2)cs1	i

The listing picks up, repeating the two entries before the break.
SMILES	Mtb growth
COC(=O)C1=CN(C)C=C(C(=O)OC)C1c1ccc(OC)cc1	i
C=C/C(=C\C=C(/C)OC)n1c(SCC(=O)Nc2cc(C(F)(F)F)ccc2Cl)nc2ccccc2c1=O	i
Cc1cc(C)cc(-c2nc(-c3cccnc3)no2)c1	48µg/mL*
O=C(CCc1ccccc1)Nc1cccc(S(=O)(=O)Nc2ccccc2)c1	i
Cc1cc(NC(=S)NC(=O)c2ccccc2)ccc1NC(=O)c1cc2ccccc2o1	i
COc1ccc(NC(=S)NCc2ccc(F)cc2)c(OC)c1	i
COc1ccc(OC)c(NC(=S)NCCc2c[nH]c3ccccc23)c1	i
COc1ccccc1OCc1ccc(C(=O)NC(C)c2ccccc2)o1 (stereo unspecified)	i
CC1(C)CC(=O)c2c(O)cc(OCC(=O)c3ccccc3)cc2O1	5%
Cc1cccc(NS(=O)(=O)c2ccc(CC(C)C)cc2)n1	i
O=C(O)C(c1ccccc1)C(C(=O)O)c1ccccc1 (stereo unspecified)	1%
CSc1nc2c(c(=O)[nH]1)C(c1ccc(Cl)cc1)C1=C(CC(C)(C)CC1=O)N2 (stereo unspecified)	i
O=C(Nc1sccc1C(=O)N1CCOCC1)c1cccnc1	1%
C#CCOc1ccc2ccccc2c1CO	6%
c1cc2c(cc1-c1ccc3c(c1)OCCO3)OCCO2	i
CCOCc1nnc(NC(=O)Cc2ccc(Cl)cc2)s1	i
CC12CCC(C(=O)Nc3ccc(Cl)cn3)(CC1=O)C2(C)C (stereo unspecified)	i
N#C/C(=C\C=C\c1ccco1)c1nc(-c2ccccc2)cs1	?
CS(=O)(=O)N(CC(=O)Nc1ccc(CSc2ccccc2)cc1)c1cccc(F)c1	i
CCC1CCCCN1C(=O)Nc1ccc(F)cc1 (stereo unspecified)	4%
CCOc1ccccc1NC(=S)Nc1ccc(OC)cc1	i
O=C(NCCCn1ccnc1)c1cc2ccccc2o1	i
O=C(NC1CCCCC1)c1cc2sc3ccccc3c2s1	i
CN(C)CCCN(CCCN(C)C)CC1CC2C=CC1C2 (stereo unspecified)	3%
Cc1ccc(CC(=O)Nc2nnc(Cc3ccc(Cl)cc3)s2)cc1	i
N#Cc1c(NC(=O)C(=O)NCc2ccncc2)sc2c1CCCC2	i
CCOC(=O)c1ccc(NC(=O)C2=C(C)Nc3nc(CCCO)nn3C2c2ccc(Cl)cc2)cc1 (stereo unspecified)	i
SMILES	Mtb growth
O=C(O)Cc1ccc(NC(=O)c2cccnc2C(=O)O)cc1	i
COc1ccc(COC(=O)NN2C(=O)c3ccccc3C2=O)cc1	i
CNC(=O)C(=O)NCCOc1ccccc1	i
Cn1nnc2cc(C(=O)NC3=NCCS3)ccc21	i
Cc1ccc(OCCOCCNCCN(C)C)c(I)c1	47%
CC(C)(O)C#Cc1ccc(C(=O)NC(Cc2ccccc2)C(=O)O)s1 (stereo unspecified)	i
COc1ccc(OCCCC(=O)Nc2ccc(OCc3ccccc3)cc2)cc1	i
COc1ccc(NC(=O)CN(c2ccc(I)cc2)S(=O)(=O)c2ccccc2)cc1OC	i
Cc1sc(NC(=O)c2cc(Br)ccc2Cl)c(C#N)c1C	i
O=C(COc1ccc(Br)cc1Cl)Nc1ccccc1C(=O)Nc1ccccc1	i
O=C(Nc1ccc(Cl)cc1)Nc1nnc(-c2cccc(Br)c2)s1	0%
C=CCn1c(SCC(=O)NCc2ccccc2)nnc1-c1ccc(OC)cc1	i
CCOc1ccc(NC(=O)C(C)Sc2nnc(-c3ccc(OC)c(OC)c3)o2)cc1 (stereo unspecified)	i
CS(=O)(=O)N1N=C(c2ccco2)CC1c1cccs1 (stereo unspecified)	0%
O=C1CCCN1CCCNC(=S)Nc1ccc2c(c1)OCO2	i
O=C(NC1CCC(NC(=O)C(Cl)Cl)CC1)C(Cl)Cl (stereo unspecified)	i
Cc1c(Br)ccc(NC(=O)c2ccc3c(c2)OCO3)c1C	i
O=C(O)c1cc2c(ccc3ccccc32)[nH]1	36%
COc1cccc2cc(C(=O)N3CC(C)OC(C)C3)c(=O)oc12 (stereo unspecified)	i
N#C/C(=C\c1ccc[nH]1)S(=O)(=O)c1ccccc1	i
O=C(COc1ccc2ccccc2c1)N1CCc2ccccc21	i
COc1ccc(NC(=O)C(=S)NCCc2ccccc2)cc1	0%
CCN(CC)C(=O)c1sc(NC(=S)Nc2nc(C)cc(C)n2)c(C(=O)OC)c1C	13%
CC1=C(C(=O)Nc2ccccc2C)C(c2cccc(O)c2)NC(=S)N1 (stereo unspecified)	i
CC(=O)c1ccc(NCCC(=O)c2ccc(C)cc2)cc1	i

Structural class: the compounds so far containing a COOH group.
SMILES	Mtb growth
Cc1ccc(C)c(S(=O)(=O)NCc2ccc(C(=O)O)cc2)c1	i
O=C(O)CCC1=C2c3ccccc3CCN2C(=O)CC1	i
C#CCOc1ccc(C2C3=C(CC(C)(C)CC3=O)N(CC(=O)O)C3=C2C(=O)CC(C)(C)C3)cc1	i
O=C(O)C(c1ccccc1)C(C(=O)O)c1ccccc1 (stereo unspecified)	1%
O=C(O)Cc1ccc(NC(=O)c2cccnc2C(=O)O)cc1	i
CC(C)(O)C#Cc1ccc(C(=O)NC(Cc2ccccc2)C(=O)O)s1 (stereo unspecified)	i
O=C(O)c1cc2c(ccc3ccccc32)[nH]1	36%

Additional entries follow:
SMILES	Mtb growth
O=C(N1CCCCCC1)N1CCN(C(=O)N2CCCCC2)CC1	i
Fc1ccc(CCNC(=S)Nc2ccc(F)c(Cl)c2)cc1	?
CCOc1ccc(N2C(=O)CC(Cc3ccccc3)C2=O)cc1 (stereo unspecified)	1%
O=C(Cc1ccc(Cl)cc1)NCCN1CCCC1	i
CCCCSc1nc2ccc(I)cc2c(=O)n1-c1ccccc1	i
CCOC(=O)c1c(NC(=O)c2cc(Cl)ccc2Cl)sc2ccccc12	0%
CC1CC(C)CN(S(=O)(=O)c2ccc(F)c(Cl)c2)C1 (stereo unspecified)	i
CCOC(=O)N1CCN(C(=O)/C=C/c2ccc(OC)cc2)CC1	0%
CCOC(=O)C1CCN(C(=O)CN(c2ccc(OC)c(Cl)c2)S(C)(=O)=O)CC1	i
CC1(NC(=S)Nc2ccccn2)CCS(=O)(=O)C1 (stereo unspecified)	i
CCOc1cc(C2C(C(=O)OC)=CN(C3CCCC3)C=C2C(=O)OC)cc(Br)c1O	i
Cc1cc(C)c(C#N)c(SCC(O)CNc2ccc(Cl)cc2)n1 (stereo unspecified)	1%
O=C(c1ccccc1Br)N1CCN(c2ccc([N+](=O)[O-])c(NCc3cccnc3)c2)CC1	i
COC(=O)c1ccc(Cn2c(C)cc(C)[n+]2C)o1	i
O=C(NCc1cccnc1)C(=O)Nc1nccs1	i
COc1cccc2cc(C(=O)C3=C(O)C(=O)N(CCN4CCOCC4)C3c3ccc(F)cc3)oc12 (stereo unspecified)	i
COc1ccc(OC)c(CN2CCC(C(=O)N3CCN(Cc4ccccc4)CC3)CC2)c1	3%
COc1ccc(C2NC(=O)CCC2[N+](=O)[O-])c(OC)c1OC (stereo unspecified)	1%
O=C(O)c1ccccc1C(=O)c1cccc2ccccc12	i
COc1ccc(C(=O)N2CC(C)N(C(=O)c3ccc(OC)c(OC)c3)CC2C)cc1OC (stereo unspecified)	i
Cc1cccc(C(=O)NCc2nnc(SCC(=O)Nc3cccc4ccccc34)n2C)c1	i
CCCOc1ccc(C(=O)Nc2sc3c(c2C(=O)OC)CCCC3)cc1	i
Cc1ccc(N2C(=O)CC(N3CCN(S(=O)(=O)c4ccccc4)CC3)C2=O)c(C)c1 (stereo unspecified)	i
CCOc1cccc2cc(C(=O)NCc3ccco3)c(=O)oc12	i
CCOC(=O)Nc1ccc2c(c1)nc(CN1CCOCC1)n2C	i
COc1ccc(NC(=O)c2sc(N)c(C(=O)OC(C)C)c2C)cc1	26%
CCOC(=O)c1ccc(NC(CC(=O)c2ccccc2)c2ccccc2OC)cc1 (stereo unspecified)	34%
CC(C)(O)C(=O)NNC(=S)Nc1ccc(F)c(Cl)c1	i
O=C(c1ccc(NC(=S)Nc2ccc(Br)cc2Cl)cc1)N1CCOCC1	i
Cc1cc(Cl)ccc1OCCCC(=O)N1CCN(c2ncccn2)CC1	i

A portion of the library. The share of hits here may be higher or lower than overall.
